Screening data deposited in PubChem by Broad Institute.
A1 apoptosis 2: blocks A1, raising caspase activity | 24,000 tested, under 10 active | MEF A1-2A-BIM cells, caspase-Glo luminescence, 3 h; percent of clofoctol response, DMSO zero | caspase activation, % (no concentration beside the values); in the data active = caspase activation above about 5.9%;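 also: wells of about 30 µL received 50 nL stock; the first replicate is given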
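system = A1-2A-BIM-expressing MEF cells | quantity = 2500 MEF cells/well | dosing = 50 nL compound per well, pinned | schedule = overnight cell settling, then 3 h compound exposure, 37 °C | signal = luminescence from DEVD-luciferin Caspase-Glo reagent, 1:1 in 50 mM HEPES, 1 h RT | read-out = Caspase-3/7 activation, seen as rise in luminescence signal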
* = called active by the depositor. A portion of the library, so the mix of outcomes need not match the whole.

SMILES	A1 apoptosis 2
COc1ccc(S(=O)(=O)Nc2cccc3c2O[C@H](CN(C)C(=O)Nc2c(C)noc2C)[C@@H](C)CN([C@@H](C)CO)C3=O)cc1	-1.0
C[C@H]1CCCCO[C@H](CN(C)Cc2ccc(C(=O)O)cc2)[C@@H](C)CN([C@@H](C)CO)C(=O)c2cc(NC(=O)Nc3cccc4ccccc34)ccc2O1	-0.1
C[C@H](CO)N1C[C@H](C)[C@H](CN(C)C(=O)Nc2cccc3ccccc23)Oc2ccc(NC(=O)c3ccncc3)cc2CC1=O	-0.3
Cc1noc(C)c1S(=O)(=O)N(C)C[C@@H]1Oc2ccc(NC(=O)Cn3cnnn3)cc2C(=O)N([C@@H](C)CO)C[C@@H]1C	-0.7
C[C@H](CO)N1C[C@H](C)[C@@H](CN(C)C)Oc2ccc(NC(=O)Cn3cnnn3)cc2CC1=O	0.4
COc1ccc(NC(=O)N(C)C[C@H]2Oc3c(NC(=O)C4CCCCC4)cccc3C(=O)N([C@@H](C)CO)C[C@@H]2C)cc1	0.2
C[C@H](CO)N1C[C@H](C)[C@H](CN(C)C(=O)Nc2ccc(F)cc2)Oc2ccc(NS(=O)(=O)c3cn(C)cn3)cc2CC1=O	0.3
CC(C)NC(=O)Nc1ccc2c(c1)CC(=O)N([C@H](C)CO)C[C@H](C)[C@@H](CN(C)C(=O)Nc1ccc3c(c1)OCO3)O2	0.6
C[C@H]1CN([C@@H](C)CO)C(=O)c2cccc(NC(=O)c3ccc(-c4nccs4)cc3)c2O[C@@H]1CN(C)C(=O)Nc1cccc2ccccc12	0.4
Cc1noc(C)c1NC(=O)N(C)C[C@@H]1Oc2ccc(NS(C)(=O)=O)cc2C(=O)N([C@@H](C)CO)C[C@H]1C	-0.7
CNC[C@@H]1Oc2ccc(NS(=O)(=O)c3ccc(Cl)cc3)cc2C(=O)N([C@H](C)CO)C[C@H]1C	0.3
C[C@H](CO)N1C[C@H](C)[C@@H](CN(C)C(=O)Nc2ccccc2)Oc2ccc(NC(=O)CCC(F)(F)F)cc2CC1=O	-2.4
C[C@H]1CN([C@@H](C)CO)C(=O)c2cc(NS(C)(=O)=O)ccc2O[C@@H]1CN(C)C	0.1
COCC1=C2[C@@H](c3ccccc3)OB(O)C[C@@H]2[C@@H]2C(=O)N(Cc3ccccc3)C(=O)[C@@H]2C1	0.9
Cc1ccc(S(=O)(=O)N(C)C[C@@H]2OCc3cn(nn3)CCCC(=O)N([C@H](C)CO)C[C@H]2C)cc1	0.8
Cc1noc(C)c1NC(=O)Nc1ccc2c(c1)C(=O)N([C@@H](C)CO)C[C@@H](C)[C@H](CN(C)Cc1ccc3c(c1)OCO3)OCCCC[C@@H](C)O2	1.0
CC(C)NC(=O)Nc1ccc2c(c1)CC(=O)N([C@@H](C)CO)C[C@H](C)[C@@H](CN(C)S(=O)(=O)c1ccc(Cl)cc1)O2	-0.2
Cc1cc(C(=O)Nc2cccc3c2O[C@@H](CN(C)C(=O)NC(C)C)[C@H](C)CN([C@H](C)CO)C3=O)n(C)n1	-0.7
C[C@H]1CN([C@@H](C)CO)C(=O)c2cc(NC(=O)CCC(F)(F)F)ccc2O[C@@H]1CN(C)C	-0.3
C[C@@H]1CN([C@@H](C)CO)C(=O)c2cc(NS(=O)(=O)c3cn(C)cn3)ccc2O[C@@H]1CN(C)Cc1ccc(Cl)c(Cl)c1	-0.2

Structures listed so far with fluorine, in the order listed:
SMILES	A1 apoptosis 2
C[C@H](CO)N1C[C@H](C)[C@H](CN(C)C(=O)Nc2ccc(F)cc2)Oc2ccc(NS(=O)(=O)c3cn(C)cn3)cc2CC1=O	0.3
C[C@H](CO)N1C[C@H](C)[C@@H](CN(C)C(=O)Nc2ccccc2)Oc2ccc(NC(=O)CCC(F)(F)F)cc2CC1=O	-2.4
C[C@H]1CN([C@@H](C)CO)C(=O)c2cc(NC(=O)CCC(F)(F)F)ccc2O[C@@H]1CN(C)C	-0.3

Other compounds.
SMILES	A1 apoptosis 2
C[C@@H]1CCCCO[C@@H](CN(C)Cc2ccc(C(F)(F)F)cc2)[C@@H](C)CN([C@@H](C)CO)C(=O)c2cc(NC(=O)Nc3ccc4c(c3)OCO4)ccc2O1	-1.3
C[C@H](CO)N1C[C@H](C)[C@H](CN(C)C(=O)Nc2ccc(F)cc2)Oc2ccc(NC(=O)Nc3ccc4c(c3)OCO4)cc2C1=O	-0.3
COc1ccc(NC(=O)N(C)C[C@H]2OCCCC[C@H](C)Oc3ccc(NS(=O)(=O)c4cccs4)cc3C(=O)N([C@H](C)CO)C[C@@H]2C)cc1	0.5
C[C@@H]1CCCCO[C@H](CN(C)C(=O)CCCN(C)C)[C@H](C)CN([C@@H](C)CO)C(=O)c2cc(NS(=O)(=O)c3cn(C)cn3)ccc2O1	0.8
C[C@@H]1CN([C@@H](C)CO)C(=O)c2cc(N(C)C)ccc2O[C@@H](C)CCCCO[C@H]1CN(C)C(=O)C1CCCCC1	-0.8
C[C@@H]1CN([C@H](C)CO)C(=O)Cc2cc(NC(=O)c3ccncc3)ccc2O[C@@H]1CN(C)Cc1ccncc1	1.1
C[C@@H]1CN([C@@H](C)CO)C(=O)Cc2cc(NC(=O)CCN3CCOCC3)ccc2O[C@H]1CN(C)Cc1ccc(C(F)(F)F)cc1	-0.9
CNC[C@@H]1Oc2ccc(NS(=O)(=O)c3ccc(OC)cc3)cc2CC(=O)N([C@H](C)CO)C[C@H]1C	1.3
Cc1noc(C)c1NC(=O)N(C)C[C@H]1Oc2c(NC(=O)Nc3ccc4c(c3)OCO4)cccc2C(=O)N([C@@H](C)CO)C[C@@H]1C	0.3
CNC(=O)C1=C[C@H](c2csc3ccccc23)C[C@H](OCc2ccc(CO)cc2)O1	0.2
C[C@@H]1CN([C@@H](C)CO)C(=O)c2cc(NC(=O)CCCN(C)C)ccc2O[C@@H](C)CCCCO[C@H]1CN(C)C(=O)CCCN(C)C	-1.5
C[C@H]1CN([C@@H](C)CO)C(=O)c2cccc(NC(=O)Nc3ccc(C(F)(F)F)cc3)c2O[C@H]1CN(C)C(=O)Nc1ccc(F)cc1	0.1
C[C@@H]1CCCCO[C@H](CN(C)S(C)(=O)=O)[C@H](C)CN([C@@H](C)CO)C(=O)c2cc(NC(=O)Nc3ccccc3)ccc2O1	-0.6
C[C@H](CO)N1C[C@H](C)[C@@H](CN(C)Cc2ccccc2C(F)(F)F)OCc2cn(nn2)CCCC1=O	1.5
C[C@H](CO)N1C[C@H](C)[C@@H](CN(C)Cc2ccccc2)OCCCC[C@H](C)Oc2ccc(N(C)C)cc2C1=O	2.4
COc1ccc(S(=O)(=O)N(C)C[C@@H]2OCCCC[C@H](C)Oc3ccc(NC(=O)Nc4cccc5ccccc45)cc3C(=O)N([C@H](C)CO)C[C@@H]2C)cc1	0.8
C[C@H](CO)N1C[C@H](C)[C@H](CN(C)Cc2ccc(F)cc2)Oc2ncc(-c3ccc(F)cc3)cc2C1=O	-1.3
Cc1ccc(S(=O)(=O)Nc2ccc3c(c2)CC(=O)N([C@H](C)CO)C[C@@H](C)[C@@H](CN(C)C(=O)Nc2ccc(F)cc2)O3)cc1	-0.6
C[C@@H]1CN([C@H](C)CO)C(=O)c2cc(NC(=O)NC3CCCCC3)ccc2O[C@@H](C)CCCCO[C@@H]1CN(C)S(=O)(=O)c1cccs1	0.4
C[C@H](CO)N1C[C@H](C)[C@@H](CN(C)S(=O)(=O)c2cccs2)OCCCC[C@H](C)Oc2ccc(N(C)C)cc2C1=O	0.0
COc1ccc(CN(C)C[C@H]2Oc3ccc(NS(=O)(=O)c4c(C)noc4C)cc3CC(=O)N([C@H](C)CO)C[C@H]2C)cc1	-1.0
C[C@@H]1CCCCO[C@@H](CN(C)Cc2ccc3c(c2)OCO3)[C@@H](C)CN([C@H](C)CO)C(=O)c2cc(NS(C)(=O)=O)ccc2O1	-1.6
Cc1noc(C)c1S(=O)(=O)Nc1ccc2c(c1)C(=O)N([C@H](C)CO)C[C@@H](C)[C@@H](CN(C)Cc1ccc3c(c1)OCO3)O2	0.5
C[C@@H]1CN([C@@H](C)CO)C(=O)CCCn2cc(nn2)CO[C@H]1CN(C)C(=O)c1cc(-c2ccccc2)on1	0.5
C[C@@H]1CN([C@@H](C)CO)C(=O)Cc2cc(NS(=O)(=O)c3cn(C)cn3)ccc2O[C@H]1CN(C)S(=O)(=O)c1ccc(Cl)cc1	0.4
C[C@@H]1CN([C@@H](C)CO)C(=O)c2cc(NS(=O)(=O)c3ccccc3)ccc2O[C@@H](C)CCCCO[C@@H]1CN(C)Cc1ccc(C(F)(F)F)cc1	-1.3
CC(C)(C)OC(=O)NC/C=N/NC(=O)CCCCCC(=O)O	0.5
Cc1noc(C)c1NC(=O)Nc1ccc2c(c1)C(=O)N([C@@H](C)CO)C[C@@H](C)[C@@H](CN(C)C(=O)c1ccccc1)OCCCC[C@@H](C)O2	0.7
O=C(c1ccccc1)c1ccc(N2CCOCC2)cc1O	-6.8
COc1ccc(S(=O)(=O)Nc2ccc3c(c2)CC(=O)N([C@@H](C)CO)C[C@@H](C)[C@@H](CN(C)C(=O)Nc2ccc(C(F)(F)F)cc2)O3)cc1	1.1
Cc1noc(C)c1S(=O)(=O)Nc1ccc2c(c1)C(=O)N([C@@H](C)CO)C[C@@H](C)[C@H](CN(C)S(=O)(=O)c1cn(C)cn1)OCCCC[C@H](C)O2	1.5
COc1ccc(S(=O)(=O)N(C)C[C@H]2OCCCC[C@H](C)Oc3ccc(NC(=O)CCC(F)(F)F)cc3C(=O)N([C@H](C)CO)C[C@H]2C)cc1	0.4
Cc1noc(C)c1S(=O)(=O)Nc1ccc2c(c1)C(=O)N([C@H](C)CO)C[C@H](C)[C@@H](CN(C)C)O2	-0.8
CNC[C@H]1Oc2ccc(NC(=O)Nc3ccccc3)cc2CC(=O)N([C@@H](C)CO)C[C@H]1C	0.9
C[C@@H]1CN([C@H](C)CO)C(=O)c2cc(NS(=O)(=O)c3cccs3)ccc2O[C@@H]1CN(C)Cc1ccc(Cl)c(Cl)c1	0.1
COc1ccc(S(=O)(=O)Nc2ccc3c(c2)C(=O)N([C@@H](C)CO)C[C@@H](C)[C@@H](CN(C)C(=O)Nc2ccccc2)OCCCC[C@@H](C)O3)cc1	-1.2
C[C@@H]1CN([C@H](C)CO)C(=O)c2cc(NS(=O)(=O)c3cn(C)cn3)ccc2O[C@@H](C)CCCCO[C@H]1CN(C)S(=O)(=O)c1cccs1	-1.0
COc1ccc(CN(C)C[C@@H]2Oc3ccc(NC(=O)C4CCCCC4)cc3C(=O)N([C@@H](C)CO)C[C@H]2C)cc1	-1.0
C[C@H]1CN([C@@H](C)CO)C(=O)c2cc(NC(=O)c3ccncc3)ccc2O[C@@H]1CN(C)Cc1ccc(C(F)(F)F)cc1	-1.6
COc1ccc(CN(C)C[C@@H]2Oc3c(NS(=O)(=O)c4cn(C)cn4)cccc3C(=O)N([C@@H](C)CO)C[C@H]2C)cc1	-0.5

Ordered by number of heavy atoms (descending): part of the list above
SMILES	A1 apoptosis 2
C[C@@H]1CN([C@@H](C)CO)C(=O)c2cc(NS(=O)(=O)c3ccccc3)ccc2O[C@@H](C)CCCCO[C@@H]1CN(C)Cc1ccc(C(F)(F)F)cc1	-1.3
Cc1noc(C)c1S(=O)(=O)Nc1ccc2c(c1)C(=O)N([C@H](C)CO)C[C@@H](C)[C@@H](CN(C)Cc1ccc3c(c1)OCO3)O2	0.5
C[C@H]1CN([C@@H](C)CO)C(=O)c2cc(NC(=O)c3ccncc3)ccc2O[C@@H]1CN(C)Cc1ccc(C(F)(F)F)cc1	-1.6
COc1ccc(CN(C)C[C@@H]2Oc3c(NS(=O)(=O)c4cn(C)cn4)cccc3C(=O)N([C@@H](C)CO)C[C@H]2C)cc1	-0.5

(more compounds)
SMILES	A1 apoptosis 2
C[C@H](CO)N1C[C@H](C)[C@H](CN(C)C)Oc2c(NC(=O)Nc3ccc(C(F)(F)F)cc3)cccc2C1=O	-0.2
C[C@@H]1CN([C@H](C)CO)C(=O)c2cc(NC(=O)c3ccncc3)ccc2O[C@@H]1CN(C)Cc1ccc2c(c1)OCO2	0.1
C[C@@H]1CN([C@H](C)CO)C(=O)c2cccc(NS(C)(=O)=O)c2O[C@@H]1CN(C)Cc1ccc(Oc2ccccc2)cc1	0.0
COc1ccc(NC(=O)N(C)C[C@@H]2Oc3ncc(-c4ccccc4)cc3C(=O)N([C@H](C)CO)C[C@@H]2C)cc1	0.4
C[C@@H]1CN([C@@H](C)CO)C(=O)c2cc(NC(=O)Cn3cnnn3)ccc2O[C@H]1CN(C)C(=O)Nc1ccc(F)cc1	-1.3
COc1ccc(S(=O)(=O)Nc2ccc3c(c2)C(=O)N([C@@H](C)CO)C[C@@H](C)[C@@H](CN(C)C(=O)NC(C)C)O3)cc1	1.2
Cc1noc(C)c1NC(=O)Nc1ccc2c(c1)CC(=O)N([C@@H](C)CO)C[C@H](C)[C@@H](CN(C)C(=O)Nc1ccc(C(F)(F)F)cc1)O2	0.9
C[C@@H]1CCCCO[C@@H](CN(C)C(=O)Cc2ccccc2)[C@@H](C)CN([C@@H](C)CO)C(=O)c2cc(NS(=O)(=O)c3ccccc3)ccc2O1	2.8
C[C@@H]1CN([C@@H](C)CO)C(=O)c2cc(NS(=O)(=O)c3ccc(Cl)cc3)ccc2O[C@@H](C)CCCCO[C@@H]1CN(C)S(=O)(=O)c1ccccc1	-0.2
C[C@H](CO)N1C[C@H](C)[C@H](CN(C)C(=O)Nc2ccc(C(F)(F)F)cc2)Oc2ccc(NS(=O)(=O)c3ccccc3)cc2CC1=O	0.3
C[C@H](CO)N1C[C@H](C)[C@@H](CN(C)S(=O)(=O)c2cn(C)cn2)Oc2ccc(NC(=O)Cn3cnnn3)cc2CC1=O	0.1
